KCNQ2 enhance: enhances the rat KCNQ2 potassium channel | O88943 | CHO-K1 KCNQ2, FluxOR thallium flux fluorescence; active compounds read high | B-score at 10 µM | 310,000 tested, 0.54% active | AID 2239;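 active = fluorescence ratio B-score at least 3 SD of library B-scores, with initial fluorescence B-score within 3 SD, cut at about 5.3 in these data; same plate scores as AID 2156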;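 also: B-score of peak minus minimum over baseline fluorescence ratio after K+ and Tl+ stimulus; positive B-score means potentiation of KCNQ2 with more thallium influx and brighter signal; only the inactives scoring about 0 or higher are listed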
Target sequence (O88943 whole entry, looked up): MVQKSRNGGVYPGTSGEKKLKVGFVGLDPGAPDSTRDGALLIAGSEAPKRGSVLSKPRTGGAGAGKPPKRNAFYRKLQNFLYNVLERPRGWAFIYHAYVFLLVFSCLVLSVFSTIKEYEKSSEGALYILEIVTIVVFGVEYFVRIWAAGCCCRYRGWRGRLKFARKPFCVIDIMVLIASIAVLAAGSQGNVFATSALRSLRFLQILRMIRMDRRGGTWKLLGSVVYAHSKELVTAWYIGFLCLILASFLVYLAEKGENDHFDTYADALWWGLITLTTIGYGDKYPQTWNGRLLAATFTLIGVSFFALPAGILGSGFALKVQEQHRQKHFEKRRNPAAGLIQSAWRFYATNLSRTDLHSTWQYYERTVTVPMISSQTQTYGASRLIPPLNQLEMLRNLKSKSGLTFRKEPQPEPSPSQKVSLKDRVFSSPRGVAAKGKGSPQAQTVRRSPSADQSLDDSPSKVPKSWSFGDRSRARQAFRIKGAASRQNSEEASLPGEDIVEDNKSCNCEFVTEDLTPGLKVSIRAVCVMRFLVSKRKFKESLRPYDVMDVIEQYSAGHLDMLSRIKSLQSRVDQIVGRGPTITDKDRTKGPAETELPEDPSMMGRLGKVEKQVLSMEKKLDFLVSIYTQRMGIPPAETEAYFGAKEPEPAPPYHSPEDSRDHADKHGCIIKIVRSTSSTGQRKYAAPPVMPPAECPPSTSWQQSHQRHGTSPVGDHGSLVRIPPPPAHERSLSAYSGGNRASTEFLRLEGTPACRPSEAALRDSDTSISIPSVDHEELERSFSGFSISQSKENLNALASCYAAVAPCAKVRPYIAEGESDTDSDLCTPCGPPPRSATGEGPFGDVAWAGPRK
KCNQ2 enhance baseline: second read-out of KCNQ2 enhance, no call of its own (marks repeat the call); B-score; compound at 10 µM; measured here: initial fluorescence intensity artifact check;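 brightness before thallium and not channel activity; 0 = typical well and far values either way flag optical interference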
The depositor's hits bear a star. An excerpt; rates above refer to the full screens.

KCNQ2 enhance	KCNQ2 enhance baseline	SMILES
1.07	0.33	COC(=O)c1ccc(Cl)c(NC(C)=O)c1
0.19	-0.47	COc1cc(NS(=O)(=O)c2ccc(NC(=O)c3ccco3)cc2)nc(OC)n1
1.07	-0.54	Cc1[nH]n(-c2ccccc2)c(=O)c1Sc1ccc(Cl)cc1
0.33	0.97	c1ccc(-c2ccc(SCc3cccnc3)nn2)nc1
0.66	1.88	CCN(CC(=O)N1CCCC1)S(=O)(=O)c1ccccc1
0.24	1.43	Cc1ccc(S(=O)(=O)NC(CC(=O)O)c2ccccc2)cc1 (stereo unspecified)
0.05	-0.88	CCC(=O)Nc1ccc(/C(C)=N\NS(=O)(=O)c2ccc(C)cc2)cc1
0.07	0.45	CC1CCCN(CCCN2C(=O)C3C(C(=O)Nc4cccc(Cl)c4)C4C=CC3(O4)C2C(=O)NC2CCCCC2)C1 (stereo unspecified)
1.14	-0.3	COc1ccc(OC)c2sc(N(CCN(C)C)C(=O)c3cc(Cl)sc3Cl)nc12
0.73	-0.71	Cn1c(CSc2nc3ccccc3s2)nc2ccccc21
1.38	0.28	Cc1c(C)c2c(OCC(=O)N[C@@H](C(=O)O)c3ccccc3)cc3c(c2oc1=O)CCC(C)(C)O3
3.48	-0.17	CCN1C(=O)c2ccccc2S(=O)c2ccc(C(=O)N3CCOCC3)cc21 (stereo unspecified)
0.86	-0.99	Cc1ccc2c(CN3CCOCC3)cc(=O)oc2c1C
0.48	1.41	COc1ccc(C(=O)CSc2n[nH]c(-c3ccncc3)n2)cc1[N+](=O)[O-]
0.28	0.12	COc1ccc(Br)cc1CNC(=O)Cn1nc(C)n2cccc2c1=O
2.26	-0.36	CCNc1nnc(CCn2nc(C)c(Br)c2C)s1
1.9	0	CCN(C(=O)COC(=O)c1nc2nc(C)cc(C)n2n1)C1CCCCC1
0.35	1.05	CN1CCN(C(=O)C2=C[C@H](C(C)(C)C)C[C@H](OCCCCO)O2)CC1
0.97	-1.85	COC(=O)c1cc(C(=O)OCC(=O)Nc2cc(C)on2)cc([N+](=O)[O-])c1
0.05	0.9	CNC(=O)c1nnn(-c2ccccc2)c1C(=O)NC
0.87	-0.37	O=S(=O)(c1cnc[nH]1)N1CCN(c2ccccc2)CC1
0.36	-0.11	COc1cccc(C(=O)Nc2cc([N+](=O)[O-])ccc2N2CCN(C)CC2)c1
0.04	-0.33	Cc1cc(C)cc(OCC(=O)NC2=NCCS2)c1
0.14	-0.44	N#CCSc1nnc(Nc2ccccc2)s1
0.07	0.25	CCOC(=O)C1=C(O)/C(=C/c2ccc(OCC(=O)O)c(OC)c2)SC1=Nc1ccc(OCC)cc1
0.02	1.12	O=C(Nc1ccccc1)/C(=C/c1cccc(Br)c1)NC(=O)c1ccco1
0.29	0.89	O=C(Cc1ccccc1)Nc1ccc(CN2CCOCC2)cc1
1.8	-0.68	COc1ccc(CNC(=O)CSc2nc(SC)ns2)cc1
0.28	2.33	Cc1cc(Br)ccc1NC(=O)CN(C)C(=O)C1CCN(C(=O)c2ccc(F)cc2)CC1
1.92	-0.55	CCSc1ccccc1C(=O)N1CCCC1

Next structures.
KCNQ2 enhance	KCNQ2 enhance baseline	SMILES
1.14	-1.79	C=CCNC(=O)C1CC(=O)N(c2ccc(OCC(=O)Nc3ccc(C)cc3)cc2)C1 (stereo unspecified)
1.31	-0.49	COc1cccc(N=CC2=C(O)CCCC2=O)c1
0.96	0.48	c1csc(-c2nnc(COc3ncnc4sccc34)o2)c1
1.77	-3.88	CSc1cccc(NC(=O)c2sc3nc4n(c(=O)c3c2C)CCC4)c1
0.4	-1.54	CC(=O)CC(=O)Nc1nc(C)cc(C)n1
0.03	1.76	CCOC(=O)N1CCN(C(=O)c2c(Cl)cnn2C)CC1
1.79	-1.11	CCc1cccc(CC)c1NC(=O)COC(=O)CCc1cc(OC)c(OC)c(OC)c1
1.3	0.68	COc1ccc(OC)c(NC(=O)N[C@@H](Cc2ccccc2)C(=O)O)c1
0.21	-0.22	CN1CN(C)c2ccc([N+](=O)[O-])c3cccc1c23
0.58	-0.2	Cc1cc(NC(=O)CCCC(=O)OCC(F)(F)C(F)F)cc(C)c1C(=O)O
0.73	0.84	Cc1ccc(OCc2ccc(C(=O)Nc3cc(C)on3)o2)c([N+](=O)[O-])c1
0.57	0.24	Cc1cc(C)n(NC(=S)NC2CCCC2)c(=O)c1C#N
1.81	-1.02	Cc1cccc(Nc2nc(N)nc(CN3CCN(c4ccccc4)CC3)n2)c1
0.06	0.2	Cc1ccc([N+](=O)[O-])cc1NC(=O)CSc1nnc(C)n1CC1CCCO1 (stereo unspecified)
0.33	1.28	Cn1nccc1C(=O)Nc1ccc(OC(=O)c2ccnn2C)cc1
0.65	1.36	CN1CCN(C(=O)/C(=C/c2cccc([N+](=O)[O-])c2)NC(=O)c2ccccc2)CC1
0.15	0.05	CC(=O)c1ccccc1OCC(O)CNC1CCCC1 (stereo unspecified)
0.52	0.21	C=CCNc1ncnc2c1cnn2-c1ccc(Cl)cc1
1.66	-1.83	CCOC(=O)C(NC(C)=O)C(OC(C)=O)c1cccc([N+](=O)[O-])c1 (stereo unspecified)
0.09	-0.62	Cc1cnc(C(=O)Nc2ccc(F)c(F)c2)cn1
1.3	0.18	Cc1cc(C)cc(C(=O)Nc2ccc(NC(=O)Cc3ccccc3)cc2)c1
0.39	-2.3	CCOC(=O)c1c(C(=O)OCC)c(C)n(N2C(=O)CSC2=S)c1C
0.38	0.11	C#CCOCCOCCOCCNc1nc(N2CCN(C(=O)[C@H](CCC(=O)O)n3cc(C(N)CO)nn3)CC2)nc(N2CCN(C(=O)[C@H](CCCCN)n3cc(C(N)[C@H](C)CC)nn3)CC2)n1 (stereo partly specified)
0.36	0.52	COc1ccc(CNC(=O)C2CCCN2S(=O)(=O)c2ccccc2)cc1 (stereo unspecified)
2.12	0.08	CC(C)c1nnc(NC(=O)Cc2cccs2)s1
1.94	-1.65	O=C(CNC(=O)Cc1ccccc1)NCC(=O)OCc1ccccc1
2.71	-0.3	O=C(Nc1ccc(O)c(C(=O)O)c1)c1cccc(NC(=O)c2ccco2)c1
0.96	0.52	CC(=O)Nc1ccc(C(=O)NN2C(=O)c3ccccc3C2=O)cc1
0.72	-0.97	Cn1c(=O)n(C)c2cc(NC(=O)c3cccc([N+](=O)[O-])c3)c(Br)cc21
0.68	0.02	CCn1c2ccccc2c2cc(NC(=O)COC(=O)c3ccccc3O)ccc21

No new results follow: 3 of the compounds above.
KCNQ2 enhance	KCNQ2 enhance baseline	SMILES
0.96	0.52	CC(=O)Nc1ccc(C(=O)NN2C(=O)c3ccccc3C2=O)cc1
0.72	-0.97	Cn1c(=O)n(C)c2cc(NC(=O)c3cccc([N+](=O)[O-])c3)c(Br)cc21
0.68	0.02	CCn1c2ccccc2c2cc(NC(=O)COC(=O)c3ccccc3O)ccc21

Two compounds picked at random from those above:
KCNQ2 enhance	KCNQ2 enhance baseline	SMILES
0.06	0.2	Cc1ccc([N+](=O)[O-])cc1NC(=O)CSc1nnc(C)n1CC1CCCO1 (stereo unspecified)
1.77	-3.88	CSc1cccc(NC(=O)c2sc3nc4n(c(=O)c3c2C)CCC4)c1

More records:
KCNQ2 enhance	KCNQ2 enhance baseline	SMILES
1.34	0.48	COCCn1c(=O)[nH]c2cc(C(=O)NCCN3CCN(c4cccc(Cl)c4)CC3)ccc2c1=O
0.06	1.12	CN(C)c1cccc(C(=O)OCC(=O)N(Cc2ccccc2)C2CCS(=O)(=O)C2)c1 (stereo unspecified)
0.04	0.05	CCC(NC(=O)c1cc(COc2cncc(Cl)c2)on1)c1ccc(C)cc1 (stereo unspecified)
0.7	-0.36	COc1ccc(CNS(=O)(=O)c2c(C(=O)N3CCCCC3)c(C)n(C)c2C)cc1
1.53	-0.68	CCN1CCN(CC(=O)N2N=C(c3cccs3)CC2c2ccc(F)cc2)C(=O)C1=O (stereo unspecified)
1.71	-0.87	O=C(Nc1nc2ccccc2[nH]1)c1ccc([N+](=O)[O-])cc1
0.47	0.05	CCn1nnnc1SCC(=O)Nc1ccc(N(C)C)cc1
0.54	0.75	CC(=O)Oc1cccc(NC(=O)c2ccc3c(c2)C(=O)N(CC(C)C)C3=O)c1
0.02	-0.06	CC1CCCN(C(=O)c2ccc3nc[nH]c3c2)C1 (stereo unspecified)
0.03	-0.83	COc1ccccc1OCC(=O)N/N=C/c1cccc2cccnc12
0.55	-0.86	N#CC1=C(S)N(c2ccc(F)cc2)C(c2ccco2)NC1=O (stereo unspecified)
0.77	-1.22	CCOc1ccc(S(=O)(=O)N2CCC(C(=O)N3CCN(Cc4ccccc4)CC3)CC2)cc1
0.41	0.2	CN1C2=CC=CC=CC2=[N+](C)C12C=CC(=[N+]([O-])[O-])C=C2[N+](=O)[O-] (stereo unspecified)
0.39	0.36	CCOC(=O)c1cnc2c(cnn2C)c1Oc1ccc(OC)cc1
0.01	0.74	COCC1CCN(C(=O)C2CCC(=O)N(C3CCCCCC3)C2)CC1 (stereo unspecified)
0.48	-1.83	C[C@H](NC(=O)c1cc2cc(Cl)ccc2n1C)C(=O)N1CCC(C(=O)O)CC1
1.79	0.39	Cc1ccc(OCCn2cncn2)c([N+](=O)[O-])c1
0.03	0.99	COc1ccc(NC(=O)C(c2cc3c(cc2[N+](=O)[O-])OCO3)N(C)c2ccccc2)cc1 (stereo unspecified)
0.07	0.1	Cc1ccc(NC(=O)CN(C)CC(=O)Nc2ccc(N3CCOCC3)cc2)cc1F
1	-0.68	CCC(C#CCN1CCCCC1)(CC)OCCC#N
1.83	-1.41	C=CCNc1nc(N)c([N+](=O)[O-])c(Nc2cccc(Cl)c2)n1
0.65	0.02	COc1ccc(CN2CCNC(=O)C2CC(=O)N2CCCO2)c(OC)c1 (stereo unspecified)
1.68	-0.78	COc1ccc(CNC(=O)C(c2ccc(O)cc2)N(Cc2ccco2)C(=O)c2snc(C(N)=O)c2N)cc1 (stereo unspecified)
0.78	-0.82	O=C(CN1CCCC1)NC1C2CC3CC(C2)CC1C3 (stereo unspecified)
0.6	-1.41	Cc1nn(C)c(Cl)c1CN1CCCC(C(=O)Nc2ccc(-c3cscn3)cc2)C1 (stereo unspecified)
0.87	0.85	Cn1c(SCC(=O)Nc2cccc(F)c2)nnc1-c1cc2ccccc2o1
1.22	-2.3	Cc1ccc(OCc2nc(-c3ccccn3)no2)cc1
0.01	-0.33	COc1ccc(CCNC(=O)Cn2nnc(-c3ccccc3F)n2)cc1OC
0.8	0.11	CC(=O)c1c(NC(=O)C(C)C)nc(C)nc1-c1ccccc1
0.29	-0.31	CSc1ccc(NC(=O)NCCCN2CCN(c3ccccc3F)CC2)cc1

Record cards, as listed above. Order of values: KCNQ2 enhance, KCNQ2 enhance baseline
COCC1CCN(C(=O)C2CCC(=O)N(C3CCCCCC3)C2)CC1 (stereo unspecified) is listed with 0.01, 0.74
COc1ccccc1OCC(=O)N/N=C/c1cccc2cccnc12 is listed with 0.03, -0.83
Cc1ccc(OCCn2cncn2)c([N+](=O)[O-])c1 is listed with 1.79, 0.39
COc1ccc(CCNC(=O)Cn2nnc(-c3ccccc3F)n2)cc1OC is listed with 0.01, -0.33
O=C(Nc1nc2ccccc2[nH]1)c1ccc([N+](=O)[O-])cc1 is listed with 1.71, -0.87

New compounds follow:
KCNQ2 enhance	KCNQ2 enhance baseline	SMILES
0.02	0.96	COc1ccc(S(=O)(=O)NCc2cccnc2)cc1
0.02	-1.54	O=C(O)c1ccc(-c2ccccc2)[nH]1
1.92	-0.44	Cc1nc2ccccc2c(=O)n1/N=C/c1ccc(O)cc1
0.33	-0.2	CC(=O)Oc1ccc2c(=O)c(/C=N/c3cc(=O)[nH]c(=S)[nH]3)coc2c1
0.21	-2.71	CC(=O)c1c(-c2ccc(Cl)cc2)c2ccccc2[nH]c1=O
0.07	-3.4	Clc1ncnc2scc(-c3ccc(Br)cc3)c12
0.39	-1.29	COc1ccc(CNC(=O)c2cc(COc3c(F)cccc3F)on2)cc1OC
0.25	-0.32	NC(=O)C1CCN(c2ccc(C(F)(F)F)cc2[N+](=O)[O-])CC1
1.4	-1.27	Cc1ccc(CNC(=O)CN(CCc2ccccc2)S(C)(=O)=O)cc1
0.47	2.14	CCOC(=O)CSC(=S)NC(=O)c1ccc(OC)cc1
0.07	-0.47	CC1CCC/C(=C\Nc2ccccc2C(=O)O)C1=O (stereo unspecified)
0.49	-1.23	Cc1cccc(NC(=O)c2cc[n+]([O-])cc2)c1C
0.03	1.44	C/C(=N/OCC(=O)Nc1ccc(C)cc1C)c1cccs1
0.78	-0.5	CSc1snnc1-c1ccccc1
1.38	-1.4	CN=Cc1sc2ccccc2c1O
1.99	0	CC(C)(C)NC(=O)C(c1ccncc1)N(C(=O)CNC(=O)c1ccco1)c1ccc(F)cc1 (stereo unspecified)
0.45	0.42	C/C(=N/NS(=O)(=O)c1cccc([N+](=O)[O-])c1)c1ccc2c(c1)OCO2
0.73	1.09	CSc1nc(NC(C)(C)C)nc(Oc2ccc(=O)n(C)n2)n1
0.08	-0.14	CN1CCN(CC(=O)Nc2nc3c(s2)CCCC3)CC1
0.04	0.03	CC(=O)Nc1nnc(CCN2CCCCC2)s1
1.32	-0.05	COCCN1CCN(Cc2nc(Cc3ccc(OC)c(OC)c3)no2)CC1
1.09	-1.17	Cn1nc(C(F)(F)F)c2cc(NC(=O)OCC(C)(C)C)sc21
1.63	-1.07	COc1ccc(/C=N/NC(=O)Nc2cccc3nsnc23)c(OC)c1
1.03	0.04	COC(=O)c1c(C)[nH]c(C(=O)CN2CCOCC2)c1C
0.82	0.42	CCOCC(=O)Nc1ccc([N+](=O)[O-])cc1C
0.01	1.35	COc1cc2c(cc1OC)C(c1cc(C)ccc1C)CC(=O)N2 (stereo unspecified)
0.44	-0.63	O=C(CSc1nc(-c2ccc(F)cc2)cs1)NCCN1C(=O)CSC1=O
0.58	-1.01	Cc1csc(N/N=C/c2ccc([N+](=O)[O-])cc2)n1
